# Bioassay records: PubChem BioAssay, several laboratories
# RN4220 kill: kills Staphylococcus aureus RN4220 | S. aureus RN4220 growth, OD600, 16 h | inhibition, % (concentration not given with the values) | hit rate 0.33% among 330,000;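 active = z-score of -3 or lower and OD600 up to 0.18 on both plates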;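 note: plate controls were untreated cells for no effect and reference antibiotic for full effect; stock transfer was 100 nL into about 80 µL; one replicate is shown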
# BJeLR lethal: kills HRASV12-expressing BJeLR cells. BJeLR (HRASV12) viability, CellTiter-Glo ATP luminescence, 48 h; reference of the scale not given here. inhibition, % (test concentration not listed). hit rate 0.17% among 300,000;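 active = replicate mean above 50%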;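 note: 50 nL library stock added to about 25 µL; numbers are from one replicate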
# PrP 5UTR inh: inhibition of PrP 5' UTR reporter expression. cell-based PrP 5' UTR mRNA reporter, plate reader. inhibition, % (concentration not given with the values). hit rate 0.35% among 340,000. AID 488862;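 active = every replicate at 50% or more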;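 note: 0 = median of the neutral control wells; tested in H4 reporter cells; numbers are from one replicate; inactives centre near -14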
# Mtb hypoxia rep: reduces hypoxia-regulated biosensor signal in M. tuberculosis; M. tuberculosis hypoxia-regulated fluorescent reporter, fluorescence; fluorescence inhibition, % (test concentration not listed); AID 1159583; hit rate 0.1% among 300,000;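 active = 35 to 45% if threefold the growth effect, above 45% if 1.5-fold the growth effect; inactive = the rest, general growth blockers included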;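 note: wells of about 50 µL received 100 nL stock; 0% = vehicle wells and 100% = reference inhibitor wells; whole bacteria with a GFP reporter of the hypoxia response; strong numbers were not always called active; many hits fall short of the cut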
# ugtP null kill: compounds lethal to S. aureus RN4220 ugtP deletion mutant; hit rate 0.54% among 330,000; OD600 growth, 16 h; some inactives read as strong as hits; growth inhibition, % (concentration not given with the values);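 active = z-score under -3 and OD600 up to 0.15 on both plates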;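 note: plate controls were untreated wells for no effect and antibiotic for full effect; wells of about 80 µL received 100 nL stock; the first replicate is given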
# Autofluor counter: compound fluorescence in toxin protease inhibitor counterscreen | compound autofluorescence counterscreen, microsphere flow cytometry; stronger effect = higher value | fluorescence intensity (test concentration not listed) | hit rate 3.1% among 360,000;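 active = at least 3 SD above the mean of all compounds, about 16000 in these data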;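 note: 100 nL of 1 mM stock went into each well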
# Mtb hypoxia rep growth: second read-out of Mtb hypoxia rep, no call of its own (marks repeat the call); growth inhibition, %; measured here: M. tuberculosis growth (absorbance);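 0% = vehicle and 100% = reference antibiotic; read after six days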
# * hit, by the source's call; · = not tested or not shown.
SMILES,RN4220 kill,BJeLR lethal,PrP 5UTR inh,Mtb hypoxia rep,Mtb hypoxia rep growth,ugtP null kill,Autofluor counter
COCc1nc2oc3ccccc3c(=O)c2cc1C(=O)OC,6.2,-13,-26,-2,1,3,3809
Cc1nnc(NC(=O)c2ccc(S(=O)(=O)N3CCc4ccccc4C3)cc2)o1,3.2,4,-20,5,3,3,1971
CCOC(=O)c1cc(-c2ccccc2)n(CC(=O)Nc2ccc(OC)c(OC)c2)c1C,2.1,19,-14,3,4,9,2419
O=C(c1cc(-c2ccccc2)on1)N1CCCc2ccccc21,4.0,2,-50,-6,-11,5,2313
c1ccc2c(c1)CC/C2=N/Nc1nc2ccccc2[nH]1,·,0,-123,·,·,·,4011
CCCc1nc(SCc2ccccn2)c2c(=O)n(C)c(=O)n(C)c2n1,0.8,2,-27,10,7,11,6576
Cc1cccc(CSc2nc3c(cc2C#N)CN(C)CC3)c1,4.6,-1,-13,15,4,2,12906
CCS(=O)(=O)N1CCN(C(C)CCc2ccccc2)CC1 (stereo not given),-1.8,-8,-3,4,-9,4,3051
CCc1ccc(CN(C)C(=O)c2ccc3c(c2)OCCO3)cc1,-0.3,4,-8,2,5,6,3503
COc1ccc(Cl)cc1NC(=O)NC(C)c1ccncc1 (stereo not given),0.7,8,-9,-2,-3,-7,17204*
NC(=O)CC(NC(=S)NCc1ccccc1)C(=O)O (stereo not given),-0.7,0,-10,2,7,1,4349
COc1ccc(CSCC(=O)N/N=C/c2ccccc2OCc2ccccc2)cc1,·,-4,-10,·,·,·,9493
CC(CC(=O)Nc1cccc(Cl)c1C)=NNC(=O)Cc1csc(N)n1,2.8,·,·,4,2,-6,·
O=C(Cc1ccc(Cl)cc1)NN=Cc1ccncc1,6.0,·,·,-1,-4,9,·
COc1ccc(OC)c(C(=O)c2coc3ccc(O)cc23)c1,6.1,-2,-10,4,11,3,5776
Cc1cccc(NNC(=S)Nc2c(C)cccc2C)c1,·,3,2,·,·,·,5228
NNC(=S)Nc1ccc(OC(F)(F)F)cc1,-0.6,2,-12,8,2,14,·
CN1CCN(CCOC2Cc3ccccc3Sc3ccc(Cl)cc32)CC1 (stereo not given),-1.0,2,-23,20,5,53,1986
O=S(=O)(Nc1ccc(Br)cc1)c1cccc(NC(=S)NCCN2CCOCC2)c1,3.5,2,-22,12,9,19,3023
COc1ccc(C(C)=N/N=C2/NC(=O)CC(C(=O)O)S2)cc1F (stereo not given),1.7,·,·,0,6,5,·
Cc1ncsc1C(=O)N1N=C2/C(=C/c3ccc(N4CCOCC4)cc3)CCCC2C1c1ccc(N2CCOCC2)cc1 (stereo not given),7.0,-1,-13,7,8,6,24267*
CCOc1ccccc1Oc1coc2cc(OC(=O)c3ccco3)ccc2c1=O,-2.4,-7,-25,-4,-1,-4,14918
COc1ccccc1/C=C/C=N/n1c(-c2cc(-c3ccccc3)n[nH]2)n[nH]c1=S,·,-8,-76,·,·,·,3685
CCCNS(=O)(=O)c1ccc(OCC(=O)Nc2ccccc2F)cc1,2.1,1,-30,10,10,4,9824
O=C(Nc1ccc(N2CCOCC2)cc1N1CCOCC1)c1ccc([N+](=O)[O-])cc1Cl,2.0,1,-2,-9,18,1,5620
COc1ccc(Br)c(C(=O)N2CCN(S(=O)(=O)/C=C/c3ccccc3)CC2)c1,9.6,-2,-11,1,0,3,3559
O=C(c1cccc(N2CCCC2=O)c1)N1CCN(c2ccc(F)cc2)CC1,0.7,-11,4,2,1,1,6126
CC1CC(CCC(=O)NC(=S)Nc2ccc(S(N)(=O)=O)cc2)C(=O)O1 (stereo not given),3.6,7,-7,-1,3,5,4065
COc1ccc(OCc2cc(C(=O)NC3CCc4ccccc43)no2)c(Cl)c1 (stereo not given),-0.7,-1,-10,1,-2,10,7287
CN(C)S(=O)(=O)c1ccc(NC(=O)COc2ncnc3sccc23)cc1,-5.2,-7,-1,2,6,-1,3976
COc1ccccc1NCC(=O)n1nc(C)cc1C,·,-14,-10,·,·,·,3956
O=C(NCc1cccnc1)c1cc(Cl)ccc1[N+](=O)[O-],5.1,8,-21,0,-1,0,2171
COc1ccc(N(C(=O)Cn2cnc3ccccc32)C(C(=O)NC2CCCCC2)c2ccccc2)cc1 (stereo not given),1.6,-4,-13,0,2,-1,12262
O=C1CCCC2=C1C(c1cccc(Br)c1)n1nc(-c3ccco3)nc1N2 (stereo not given),1.3,6,-14,10,6,9,5467
COCCN1CCN(c2c3c(nc4cc(-c5cccc(F)c5)nn24)CCC3)CC1,-1.2,-11,-9,·,·,7,4266
Clc1ccc(N2CCN(Cc3c[nH]c4ncccc34)CC2)cc1,4.0,·,-6,2,2,1,5421
Cc1ccc2c(c1)N(CC(=O)N1CCC(O)CC1)C(=O)CO2,2.0,-4,-24,8,-6,1,3670
CC(C)C[C@H](NC(=O)c1nc[nH]c1C(=O)N(C)Cc1ccccc1)C(=O)OC(C)(C)C,·,3,-3,·,·,·,3663
Cc1cccc(N2C(=O)C(Cl)=C(N3CCOCC3)C2=O)c1,2.2,-2,-32,2,-6,-8,3925
OCC[C@H]1C[C@@H](O)[C@H](O)[C@@]2(CCCCO2)O1,·,0,-11,·,·,·,3896

# Ordered by heavy-atom count (rising): part of the list above.
SMILES,RN4220 kill,BJeLR lethal,PrP 5UTR inh,Mtb hypoxia rep,Mtb hypoxia rep growth,ugtP null kill,Autofluor counter
Cc1cccc(N2C(=O)C(Cl)=C(N3CCOCC3)C2=O)c1,2.2,-2,-32,2,-6,-8,3925
CC(CC(=O)Nc1cccc(Cl)c1C)=NNC(=O)Cc1csc(N)n1,2.8,·,·,4,2,-6,·
COc1ccc(Br)c(C(=O)N2CCN(S(=O)(=O)/C=C/c3ccccc3)CC2)c1,9.6,-2,-11,1,0,3,3559

# Next part
SMILES,RN4220 kill,BJeLR lethal,PrP 5UTR inh,Mtb hypoxia rep,Mtb hypoxia rep growth,ugtP null kill,Autofluor counter
CC(=O)c1c(C)nc(-c2ccc3c(c2)OCO3)n1O,5.1,12,-20,12,13,4,·
COCC(=O)Nc1ccc(C(N)=O)cc1,3.4,-11,-18,10,-3,8,4752
CC1=CC(C)(C)NC(=S)N1c1cccc2ccccc12,19,-2,-3,-6,-2,3,3260
CC(Nc1n[nH]c(=O)[nH]c1=O)C(=O)NN=Cc1cccs1 (stereo not given),-6.6,·,·,-6,-2,-11,·
Cc1nc(CSc2ccc(Cl)cc2)cc(N2CCOCC2)n1,2.9,8,-12,·,·,7,3823
CC1CCCCN1S(=O)(=O)c1cccc(S(=O)(=O)N2CCOCC2)c1 (stereo not given),6.5,2,-19,10,4,-1,4370
COc1ccc(-c2nn(-c3ccccc3)cc2/C=N/N2C(=O)CSC2=S)cc1,·,4,-60,·,·,·,9121
COC(=O)c1[nH]c(C)c(/C(O)=C2\C(=O)C(=O)N(CCN3CCOCC3)C2c2cccnc2)c1C (stereo not given),-1.5,2,-10,-9,1,-7,10109
NNC(=O)c1nc(-c2cccc(-n3cccc3)c2)no1,4.8,6,-17,3,1,-6,6016
COc1ccc(C2C3C(=O)N(C(C)(C)C)C(=O)C3[C@]3(Cc4ccc(Cl)cc4)C(=O)N(c4cccc(C)c4)C(=O)N23)cc1 (stereo not given in full),5.5,·,·,-3,0,11,·
CCOc1ccc(CCNC(=O)COC(=O)c2cccc(S(=O)(=O)N(C)C)c2)cc1OCC,1.0,·,-6,-1,3,4,8009
O=C(COc1ccc2c(c1)oc(=O)c1ccccc12)N[C@@H](Cc1c[nH]c2ccccc12)C(=O)O,2.5,7,-34,·,·,4,5478
OCCN(C=Nc1nc(-c2ccc(Br)cc2)cs1)CCO,3.4,·,·,5,3,8,·
CC1CN(c2nc3ccccc3nc2C(C#N)C(=O)OC2CCCCC2)CC(C)O1 (stereo not given),5.2,-9,-22,4,8,2,21164*
CN(C)CCn1nnnc1SCC1=C(C(=O)O)N2C(=O)C(NC(=O)Cc3csc(N)n3)C2SC1 (stereo not given),100*,·,·,22,23,100*,·
COc1ccc(NC(=O)CN2CCN(S(=O)(=O)c3ccc(Cl)cc3)CC2)cc1Cl,-2.7,-2,-22,·,·,-3,5841
NS(=O)(=O)c1ccc(CCNC(=O)C2CCC(Cn3c(=S)[nH]c4ccccc4c3=O)CC2)cc1 (stereo not given),3.3,-4,-21,8,12,-9,4600
Oc1ccc(-c2cc(-c3ccc(O)cc3)nc(-c3ccccc3)n2)cc1,97*,-3,3,-6,4,100*,3811
O=S(=O)(Nc1ccc(F)cc1)c1ccc(NC(=S)Nc2ccccc2)cc1,-3.8,8,-27,·,·,-2,2607
COc1ccc(OC)c(-c2csc(NC(=O)c3ccc4c(c3)OCO4)n2)c1,14,-1,-19,9,5,-14,8444

# Entries of single compounds from above. Order of screens: RN4220 kill	BJeLR lethal	PrP 5UTR inh	Mtb hypoxia rep	Mtb hypoxia rep growth	ugtP null kill	Autofluor counter
# Results for Cc1ccc2c(c1)N(CC(=O)N1CCC(O)CC1)C(=O)CO2 : 2.0	-4	-24	8	-6	1	3670
# Results for O=S(=O)(Nc1ccc(F)cc1)c1ccc(NC(=S)Nc2ccccc2)cc1 : -3.8	8	-27	·	·	-2	2607
# Results for OCCN(C=Nc1nc(-c2ccc(Br)cc2)cs1)CCO : 3.4	·	·	5	3	8	·

# Additional records
SMILES,RN4220 kill,BJeLR lethal,PrP 5UTR inh,Mtb hypoxia rep,Mtb hypoxia rep growth,ugtP null kill,Autofluor counter
Cc1cc([N+](=O)[O-])nn1CC(=O)NC1CCCCC1,4.9,-3,-14,1,5,8,5887
O=C(Nc1cc(Cl)ccc1N1CCOCC1)c1ccncc1,1.1,·,-7,8,2,5,5440
Cn1cc(C(=O)c2ccc(Cl)cc2Cl)cc1C(=O)N/N=C(\N)COc1ccc(Cl)cc1Cl,·,6,-3,·,·,·,3499
CCn1cc(C(=O)NCCC(C)C)c(=O)c2cc(F)c(N3CCN(C)CC3)cc21,5.6,0,4,4,-5,18,3040
CC1=C(C)CC(C(=O)Nc2cccc(Cl)c2)C(C(=O)O)C1 (stereo not given),-0.5,0,2,0,3,-4,5785
COc1cc(/C=C/C(=O)Nc2ccc(OC)c(S(=O)(=O)N3CCOCC3)c2)ccc1OC(F)F,-12,·,-23,8,11,87*,7953
Cc1ccc2c(c1)c(N=NC(N)=S)c(O)n2Cc1ccccc1,·,-20,-15,·,·,·,10627
CCCc1ccc(S(=O)(=O)N2CCN(C(C)C(=O)NCc3ccc(OC)cc3)CC2)cc1 (stereo not given),1.1,·,-15,-4,-4,2,6341
COc1ccc(OCCSc2nc3nc(C)cc(C)n3n2)cc1,4.8,-6,-13,8,8,2,4995
Cc1cc(Cl)ccc1OCCCC(=O)OCC(N)=O,7.5,-6,-17,14,2,4,3366
COc1ccc(C(C(=O)NCc2ccccc2)N(Cc2ccco2)C(=O)c2cnccn2)cc1 (stereo not given),3.6,6,-82,8,-1,4,3939
Cc1cc(C)n(-c2nc(C)nc(N)n2)n1,-1.8,-2,-24,·,·,-3,4555
COc1cccc(C=Nc2sc(Cc3ccccc3)c(C)c2C(N)=O)c1O,9.1,·,·,1,-1,-2,·
CCOc1ccc(NC(=O)C2CCC(CNc3c(N4CCCCC4)c(=O)c3=O)CC2)cc1 (stereo not given),4.4,0,2,0,-3,3,4583
COc1cc(-c2noc(C)c2C#CCO)cc(OC)c1OC,7.4,-5,-11,-4,1,2,2881
Cc1cc(C)cc(NC(=O)C2CCCN(S(=O)(=O)c3c(C)noc3C)C2)c1 (stereo not given),1.5,2,0,0,-4,0,5882
Cc1cnc(C(=O)Nc2ccc(OC(F)(F)F)cc2)cn1,3.4,12,-26,14,5,4,·
NS(=O)(=O)c1ccc(CNC(=O)c2ccc3c(=O)n4c(nc3c2)CCC4)cc1,1.5,3,1,-1,-4,-3,5482
CCc1nc(SCc2ccc(F)cc2)n[nH]1,4.6,4,-24,8,-1,0,4048
Cc1ccc(Cn2cnc3ccccc32)cc1,3.8,6,-13,1,9,2,6816
CC1CCCC(C)N1C(=O)CSc1nnc(COc2ccc(F)cc2)o1 (stereo not given),8.1,-7,-17,6,3,2,5926
CCC(C)C(=O)Nc1ccc(OC)cc1[N+](=O)[O-] (stereo not given),2.5,-1,-15,9,10,-1,2623
CN1C(=O)C2C(c3ccc(N(C)C)cc3)=NN(Cc3ccccc3)C2C1=O (stereo not given),0.6,-5,-13,5,-2,5,3777
O=C(NC1CCCCCC1)c1cccc(S(=O)(=O)N2CCOCC2)c1,3.1,·,-23,1,7,2,3734
O=C(NCCCN1CCCC1=O)c1nnc(Cc2c(F)cccc2Cl)o1,1.7,-3,6,5,6,0,22538*
O=C(N/N=C/c1ccc(N2CCOCC2)cc1)c1ccccn1,·,-2,-68,·,·,·,5100
O=C(Cn1cnc2ccccc2c1=O)NNC(=O)c1ccccc1,0.6,-2,·,8,-5,9,4154
